Screening data as filed in PubChem BioAssay.
Calb FLC = affects C. albicans growth with fluconazole | C. albicans CaCi-2 (fluconazole-resistant clinical isolate) + fluconazole, Alamar Blue growth, 48 h | growth inhibition, % (test concentration not listed) | 300,000 tested, 0.57% active | AID 1979;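 active means most replicates above 75%; inconclusive means exactly half above 75%; inactive means most below 75%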;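 further: all wells also contain fluconazole at 8 µg/ml as a sub-toxic cotreatment; 0% = median of DMSO wells and 100% = median of geldanamycin control wells; wells of about 8 µL received 7.5 nL stock; the first replicate is given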
Beta cell apopt = blocks beta cell apoptosis | INS-1E cytokine-induced death, ATP luminescence, 48 h; percent of positive-control rescue, neutral wells zero | protection from apoptosis, % (concentration not given with the values) | 300,000 tested, 0.8% active | AID 435005;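 active means all replicates at 75% or more, or half of them and the mean; inconclusive means half reach 75% but not the mean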;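 further: 0% = cytokine-treated negative control wells and 100% = positive control rescue; higher means more ATP so stronger rescue from cytokine killing; wells of about 40 µL received 100 nL stock; the first replicate is given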
Ecoli rRNA inh = selective bacterial rRNA inhibition in E. coli. GFP signal change (wild-type ribosome), % (no concentration beside the values). AID 720706. E. coli WT GFP vs humanized-ribosome RFP mutants, fluorescence, 24 h; active compounds read low; DMSO median 0, no signal -100. 350,000 tested, 1.6% active;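 active means significant combined selectivity score with lowered wild-type GFP, culture density cut under 30%, mutant RFP and density less affected; inactive means any of these conditions unmet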; further: one replicate is shown; some compounds called inactive have numbers as strong as hits
MLL AF4-AF9 inh = inhibitors of human MLL-AF4/AF9 interaction; P42568; AID 651704; 350,000 tested, 0.47% active; AlphaScreen, biotin-AF4 peptide binding to FLAG-AF9; inhibition, % at 10 µM;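 active means every replicate reaching a set inhibition limit, whatever the replicate mean, cut at about 25% in these data; inconclusive means mean inhibition reaches that limit but some replicates miss it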;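 further: 0% = plate neutral control median and 100% = total signal loss; the record names both 10 and 1 µM as test concentration; the first replicate is given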
Target sequence (P42568 whole entry, looked up): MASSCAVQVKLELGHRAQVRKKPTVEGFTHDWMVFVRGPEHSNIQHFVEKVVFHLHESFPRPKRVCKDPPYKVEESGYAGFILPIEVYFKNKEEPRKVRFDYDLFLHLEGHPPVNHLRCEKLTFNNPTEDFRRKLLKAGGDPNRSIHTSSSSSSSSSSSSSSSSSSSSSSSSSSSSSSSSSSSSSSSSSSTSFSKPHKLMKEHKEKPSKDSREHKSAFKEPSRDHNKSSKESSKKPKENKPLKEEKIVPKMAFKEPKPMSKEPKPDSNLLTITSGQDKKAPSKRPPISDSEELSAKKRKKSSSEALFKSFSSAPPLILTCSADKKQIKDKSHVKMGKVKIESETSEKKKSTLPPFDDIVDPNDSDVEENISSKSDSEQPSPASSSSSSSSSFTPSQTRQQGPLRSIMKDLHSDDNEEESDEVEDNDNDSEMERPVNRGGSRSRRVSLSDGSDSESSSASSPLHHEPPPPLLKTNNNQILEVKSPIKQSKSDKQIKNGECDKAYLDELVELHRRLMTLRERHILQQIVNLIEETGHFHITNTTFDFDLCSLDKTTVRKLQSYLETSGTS
T cruzi inh = T. cruzi replication inhibition. 300,000 tested, 1.4% active. T. cruzi beta-gal in NIH3T3, luminescence, 90 h. AID 1885. inhibition, % (test concentration not listed);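 active means mean inhibition across valid replicates above about 55%, limit read from the data; inconclusive means mean below that limit but half or more replicates reach it; inactive means mean below it, under half of replicates reach it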;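 further: signal also drops with host cell toxicity which is not excluded here; 0% = plate median of DMSO wells and 100% = zero luminescence signal; higher percent means less beta-gal luminescence so fewer parasites; stock transfer was 50 nL into about 50 µL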
ALR inh = inhibitors of human sulfhydryl oxidase ALR; P55789; purified ALR, DTT oxidation, H2O2 HRP-luminol luminescence; inhibition, % (no concentration beside the values); 290,000 tested, 3.8% active; AID 485317;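 active means mean and each replicate at 75% or more; inconclusive means only one of the two met; inactive means neither met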;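 further: stock transfer was 7.5 nL into about 7.5 µL; 0% = neutral wells and 100% = wells with inactivated enzyme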
Target sequence (P55789 whole entry, looked up): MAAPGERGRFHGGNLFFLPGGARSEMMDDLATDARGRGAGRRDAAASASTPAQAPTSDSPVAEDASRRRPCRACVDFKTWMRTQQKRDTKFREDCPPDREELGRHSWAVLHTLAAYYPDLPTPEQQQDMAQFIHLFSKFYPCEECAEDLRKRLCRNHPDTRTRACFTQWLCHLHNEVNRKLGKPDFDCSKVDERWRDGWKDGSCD
RanGTP-Impb inh = disruptors of Ran-importin-beta complex formation – biochemical, FRET, CFP-Ran, YFP-importin-beta, homogeneous, primary screen. cell-free CFP-Ran/YFP-importin-beta FRET ratio. inhibition, % (concentration not given with the values). 300,000 tested, 1.1% active. AID 2216;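 active means most replicates above 15%; inconclusive means exactly half above 15%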;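 further: 0% = DMSO wells and 100% = Ran loaded with GDP instead of GTP; wells of about 40 µL received 100 nL stock; the first replicate is given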
FGF22 binding = shifts melting point of recombinant human FGF22. AID 651658. calls only at 9.99 µM. 340,000 tested, 1.5% active. Q9HCT0. recombinant FGF22 thermal shift, SYPRO orange fluorescence; percent of sucrose octasulfate shift, DMSO zero;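 active means melting point raised past a set limit in the mean and every replicate; inconclusive means no clear call; three in four hits are not shown here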
Target sequence (Q9HCT0 whole entry, looked up): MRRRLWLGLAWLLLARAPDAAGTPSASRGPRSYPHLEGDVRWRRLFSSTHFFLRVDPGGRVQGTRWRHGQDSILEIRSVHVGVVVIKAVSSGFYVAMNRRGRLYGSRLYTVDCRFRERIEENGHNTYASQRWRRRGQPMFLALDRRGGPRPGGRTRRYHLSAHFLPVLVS
Ecoli rRNA inh OD600 = recorded beside Ecoli rRNA inh, whose call it bears; OD600 change, %; measured here: OD600 growth;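 optical density of the mix in the first replicate; 0 = DMSO median and -100 = no signal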
Ecoli rRNA inh RFP = second read-out of Ecoli rRNA inh, no call of its own (marks repeat the call); RFP signal change, %; measured here: RFP humanized mutant strains;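 first replicate; 0 = DMSO median and -100 = no signal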
* = called active by the depositor; i = inactive; ? = inconclusive; · = no result given. Only part of the results is shown (hit frequency here may not be typical).

SMILES	Calb FLC	Beta cell apopt	Ecoli rRNA inh	Ecoli rRNA inh OD600	Ecoli rRNA inh RFP	MLL AF4-AF9 inh	T cruzi inh	ALR inh	RanGTP-Impb inh	FGF22 binding
CCS(=O)(=O)N1CCCC(c2nc(-c3cccc(OC)c3)no2)C1 (stereo not drawn)	21	3	-14	-13	-3.4	3.7	3	-5	-1.9	i
O=C(COC(=O)c1ccc(O)cc1)NC1CCCC1	11	·	2	4	1.1	-9.6	0	·	6.2	i
NS(=O)(=O)c1ccc(CCNC(=O)CNC(=O)c2ccc(Oc3ccccc3)cc2)cc1	-6	0	3	6	-1.4	1.3	-4	2	-0.9	i
O=S1(=O)CCC(NC(=S)SCCOc2ccccc2)C1 (stereo not drawn)	37	-57	17	9	0.4	1.4	-3	-5	2.3	i
Cc1ccc(S(=O)(=O)NCC(c2ccco2)N2CCc3ccccc32)cc1 (stereo not drawn)	29	·	-35	-40	-8.4	5.2	19	49	0.1	i
COc1ccc(OC)c(CCNC(=O)CCc2nnc3ccc(N4CCCC4)nn23)c1	-18	-1	7	-9	7.8	4.9	35	-12	1.7	i
Cc1noc(C)c1COC(=O)Cn1c(C)nc2ccccc21	0	-2	·	·	·	·	-12	6	0.6	·
O=C(Nc1nc(-c2ccco2)c(-c2ccco2)s1)c1ccco1	-1	-7	-6	8	5.3	14	2	-2	·	i
O=C(NCc1ccc(/C=c2\sc3n(c2=O)CCN=3)o1)C(=O)Nc1ccccc1	3	·	·	·	·	·	6	-28	2.1	·
CC(C)(C)CN1CCNC(=O)C1CC(=O)NCc1cccc(-n2cccn2)c1 (stereo not drawn)	12	-4	0	0	1.3	-1.3	-7	-7	-2.3	i
Cc1cccc(N2C(=O)SC(SC(=Nc3ccccc3)Nc3ccccc3)C2=O)c1 (stereo not drawn)	9	5	·	·	·	·	7	1	0.2	·
Nc1cc(=O)[nH]c(SCC(=O)Nc2ccc(S(=O)(=O)N3CCCCC3)cc2)n1	-6	-1	8	8	2.1	-1.7	-11	-44	0.7	i
O=C(Nn1c(C2CC2)nc2ccccc2c1=O)c1ccco1	-8	0	·	·	·	·	7	-8	-2.8	·
Cc1ccc(C(=O)Nc2ccc3cn[nH]c3c2)cc1S(=O)(=O)N1CCOCC1	0	-1	-17	-10	1.3	-14	-6	-14	-0.4	i
CC(C)C(NC(=O)c1ccco1)C(=O)NCc1ccc(C(=O)O)cc1 (stereo not drawn)	1	-2	3	8	-1.4	0.2	-8	-5	2.8	i
COc1cccc(CC2(CO)CCN(Cc3cnc(-c4cccc(C)c4)nc3)CC2)c1	-6	3	-58	-77	-19	5.3	24	-9	14	i
CN(C)/C=C/C(=O)c1cnc(-c2ccccn2)s1	39	-3	3	-4	6.4	-7.5	-13	2	1.6	i
CCn1c(O)c(/C=C2\C=Nc3ccccc32)sc1=Nc1ccccc1	4	1	19	9	4.4	10.0	26	-16	0.9	i
COc1ccc(CCNC(=O)CN(c2ccccc2)S(C)(=O)=O)cc1	-13	-3	5	12	2.5	1.6	-21	7	0.1	i
COc1ccc(NS(=O)(=O)c2ccc(C)c(C(=O)NCC(c3ccco3)N3CCCCC3)c2)cc1 (stereo not drawn)	-14	-1	4	1	0.4	6.4	1	0	0.4	·
Cn1cccc1C(=O)C(=O)Nc1ccc(F)c(F)c1	-1	3	25	-1	-1.6	1.0	-5	-7	-2.6	i
Cc1ccc(O)c(C2=Nc3ccccc3N=C(c3cccc([N+](=O)[O-])c3)C2)c1	1	1	-4	-15	-0.5	13	34	-5	?	i
Cc1cc2nc(-c3cc(N4CCOCC4)ccc3[N+](=O)[O-])ccn2n1	6	-10	2	0	1.2	5.8	1	33	0.4	i
O=C(COC(=O)c1ccc(CO)cc1)c1ccc(S(=O)(=O)N2CCCCC2)cc1	·	-5	-2	0	0.2	1.5	·	-1	·	i
O=C(c1ccc(F)cc1)N1CCC(O)(c2cccnc2)CC1	-7	-3	·	·	·	·	-30	-4	-3.5	·
CCN(CC)c1ccc(NC(=S)NC(=O)c2cccs2)cc1	58	5	-27	-22	-14	19	2	98*	?	i
O=C(CCN1C(=O)C2C3C=CC(C3)C2C1=O)Nc1ccccn1 (stereo not drawn)	-3	-5	4	3	-4.4	·	-3	-2	2.9	·
CCCC(NC(=O)CCl)c1ccccc1 (stereo not drawn)	2	-13	23	2	1.0	-39	-31	-15	-1.2	i
Cn1c(SCC(=O)NNC(=S)Nc2ccccc2)nnc1-c1ccncc1	21	3	·	·	·	·	-10	-6	4.2	·
CC(C)[C@H]1COC(NC2=N[C@@H](C(C)C)CO2)=N1	-2	1	11	29	35	-2.1	9	30	-1.4	i
CCC(CC)C(=O)NCCCCc1ccccc1	-9	-1	·	·	·	·	-2	-2	-0.9	·
CCOC(=O)c1nnn(-c2nonc2N)c1C	?	-3	·	·	·	·	-4	14	5.0	·
CC(C)C(=O)Nc1c2c(nn1-c1ccc(F)cc1)CS(=O)(=O)C2	2	-5	-4	6	-0.9	-0.5	-24	4	2.2	i
CNC(=O)NC(=O)Cn1cnc2sc(-c3ccccc3)cc2c1=O	-3	·	9	14	2.6	-1.0	-15	-22	7.6	i
O=C(CCCCCNC(=S)Nc1ccccc1)C[N+](=O)[O-]	-9	1	-1	-1	4.3	-12	3	-5	-1.5	i
COCC(=O)Nc1cc(C(=O)NCCc2ccccc2)ccc1Cl	-1	-8	4	-10	-3.6	-5.7	-13	·	0.1	i
O=C(CCSc1nnc(-c2ccco2)o1)N1CCOCC1	-5	-3	4	2	3.9	-2.3	-6	·	-5.6	i
CCOc1ccc2nc(N(CCN(CC)CC)C(=O)/C=C/c3cccs3)sc2c1	-18	17	-6	3	0.6	2.2	20	5	5.6	i
CC(=O)c1c(N2CCOCC2)[nH]c(-c2ccccc2)nc1=S	4	-9	41	4	32	0.5	-1	·	-2.5	i
COc1ccccc1-c1nnc(C2CCN(S(=O)(=O)c3ccccc3[N+](=O)[O-])CC2)o1	0	2	-18*	-1.0*	1.9*	-6.9	8	-1	-0.2	i
CC1=C(C(=O)Nc2ccccc2)C(c2ccco2)C(C#N)=C(SCc2ccccc2)N1 (stereo not drawn)	5	20	·	·	·	·	5	5	-0.1	·
CC(C)CCNC(=O)C(c1ccncc1)N(CC1CCCO1)C(=O)Cn1nnc(-c2ccc(F)cc2)n1 (stereo not drawn)	0	2	13	14	-3.6	-0.7	12	-6	0.9	i
COc1ccc(OC)c(CN2CCC(C(=O)N3CCN(c4ccccc4F)CC3)CC2)c1	-21	2	13	7	0.5	8.2	1	1	3.9	i
COC(=O)c1ccccc1NC(=S)NC(=O)c1ccc(C)cc1	26	-8	2	3	2.2	-5.1	-18	66	-2.6	i
CCOC(=O)Cn1c(S(=O)(=O)Cc2ccc(Cl)cc2)nc(-c2ccccc2)c1-c1ccccc1	7	·	·	·	·	·	43	1	-1.5	·
Cc1cc(N2CCCCC2)n2ncc(-c3ccccc3)c2n1	5	-1	·	·	·	·	13	25	2.5	·
O=C1S/C(=C/c2ccccc2)C(=O)N1CC(O)Cn1c2ccccc2c2ccccc21 (stereo not drawn)	-1	0	·	·	·	·	22	-4	4.9	·
O=C(CSc1ccccn1)Nc1ccc(Cl)c([N+](=O)[O-])c1	16	-4	7	7	-2.1	0.9	0	-1	0.4	i
Cc1ccc(-c2nnn(CC(=O)N(CCCO)C(C(=O)NC3CCCC3)c3ccc(Cl)cc3)n2)o1 (stereo not drawn)	16	-4	4	7	-1.2	5.0	-2	-6	-2.2	i
CCOc1ccc(NC(=O)NNC(=O)C2CCC(C(C)(C)C)CC2)cc1 (stereo not drawn)	-6	-4	15	9	4.1	-1.1	·	·	-2.6	i
The list goes on:
SMILES	Calb FLC	Beta cell apopt	Ecoli rRNA inh	Ecoli rRNA inh OD600	Ecoli rRNA inh RFP	MLL AF4-AF9 inh	T cruzi inh	ALR inh	RanGTP-Impb inh	FGF22 binding
CN(C)NC(=S)Nc1cccc(C(F)(F)F)c1	-6	-3	9	2	-3.1	-0.6	-27	31	-1.2	i
COc1ccc(S(=O)(=O)Nc2c(C)nn(C)c2C)cc1Br	·	1	-4	4	-2.3	0.5	·	2	·	i
COc1ccc2sc(C)[n+](C)c2c1	11	·	20	12	8.1	-6.2	-8	72	2.7	·
CSCC[C@@H](C(=O)O)N1Cc2ccccc2C1=O	-2	-11	4	13	-1.0	0.0	-11	-2	-5.8	i
CC(C)OC(=O)n1c(=S)oc2ccccc21	7	9	14	6	1.3	·	-5	1	-0.2	·
Cc1onc(-c2c(F)cccc2Cl)c1C(=O)Nc1nnc(C(F)(F)F)s1	·	32	-52	-74	-14	-1.7	-7	1	·	i
COc1ccc(CCNc2ccc(C(CC(N)=O)NC(=O)Cc3cccc4ccccc34)cc2[N+](=O)[O-])cc1 (stereo not drawn)	-9	-5	8	7	-7.9	2.2	-14	1	-7.2	i
COc1ccc(NC(=O)/C=C/c2cccc(F)c2)cn1	9	-3	·	·	·	·	1	-7	1.4	·
CCCCn1c(=S)[nH]c2cc(S(=O)(=O)N3CCCCC3)ccc21	8	6	·	·	·	·	5	10	-2.2	·
CCn1cc([N+](=O)[O-])c(C(=O)N2N=C(c3ccccc3)CC2c2ccc([N+](=O)[O-])cc2)n1 (stereo not drawn)	15	-5	·	·	·	·	13	1	-0.5	·
CNC(=S)N(C)[C@H]1c2c(ccc3ccccc23)OC[C@H]1CO	-2	-1	-19	-26	-5.4	0.0	3	-2	0.0	·
COCCN(C(=O)CCl)C(C(=O)NC1CCCCC1)c1ccccc1C (stereo not drawn)	-3	·	-6	-2	11	4.6	-10	-3	?	i
O=C(COc1ccc(Cl)cc1)OCC(=O)N1CCOCC1	·	-2	3	4	1.4	-18	·	-3	·	i
Cc1ccc(CSCC(=O)NN=C2CCN(C)CC2)cc1	?	8	·	·	·	·	-7	15	-0.3	·
O=C(CCc1ccccc1)NCCc1nc2ccccc2[nH]1	-2	-4	-7	-10	-2.8	-0.7	10	-6	-1.1	i
S=c1[nH]nc(CCc2nc3ccccc3[nH]2)n1-c1ccccc1	-21	-6	8	6	-0.7	-6.5	-23	41	1.5	i
CCOC(=O)COn1c(SCC(=O)OCC)nc2ccccc2c1=O	-17	-5	·	·	·	·	-43	-13	1.0	·
CC(C)C[C@H](NC(=O)c1nc[nH]c1C(=O)NCc1ccccc1)C(=O)OC(C)(C)C	15	-17	-10	-18	23	0.8	2	-4	7.1	i
COc1ccc(CCNC(=O)Cn2nnc(-c3ccc(N4CCOCC4)cc3)n2)cc1OC	0	0	14	13	5.8	3.5	-22	5	1.6	i
